VDR inhibitor: inhibitors of human vitamin D receptor | P11473 | VDR-SRC2-3 peptide fluorescence polarization, 2 h | Potency, µM, inactives show max response, negative = inhibition, usual class: inhibitors | actives 0.93% (n = 400,000); active = well fitted inhibition curve with a large enough effect; inconclusive = small, poorly fitted or top-dose-only effect, or another doubt; inactive = no such curve, though single readings can be large or run the other way; note: series mostly up to about 120 µM
Target sequence (P11473 whole entry, looked up): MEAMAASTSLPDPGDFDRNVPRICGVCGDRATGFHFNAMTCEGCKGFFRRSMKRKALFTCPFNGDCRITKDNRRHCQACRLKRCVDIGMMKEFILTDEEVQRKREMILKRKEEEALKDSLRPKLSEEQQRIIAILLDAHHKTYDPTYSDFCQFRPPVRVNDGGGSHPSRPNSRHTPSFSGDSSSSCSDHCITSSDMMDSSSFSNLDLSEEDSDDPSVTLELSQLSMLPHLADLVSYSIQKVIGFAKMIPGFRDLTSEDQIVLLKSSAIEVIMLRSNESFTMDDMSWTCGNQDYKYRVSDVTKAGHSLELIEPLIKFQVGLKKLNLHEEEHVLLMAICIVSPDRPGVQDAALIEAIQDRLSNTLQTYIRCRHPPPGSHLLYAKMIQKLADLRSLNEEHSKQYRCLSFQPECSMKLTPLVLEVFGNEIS
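Fluorescence polarization assay measuring small-molecule disruption of VDR binding to the coregulator peptide SRC2-3. Compounds were pin-transferred (23 nl) into the reagent mix and incubated 2 h at room temperature before reading.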
Numbers without * were called inactive; ? = inconclusive. % is set by controls: 0 for no effect and ±100 for the full control effect; potency is the fitted concentration of half-maximal effect. A portion of the library; the hit share may differ from the screen's.

| compound | VDR inhibitor |
| --- | --- |
| Cc1ccc(C)c(N2CCN(S(=O)(=O)c3ccc4c(c3)OCCO4)CC2)c1 | -3% |
| CSc1ccccc1C(=O)NC1CCSc2ccccc21 (stereo not drawn) | -6% |
| O=C(COC(=O)c1oc2ccccc2c1COc1ccccc1)NCCN1C(=O)CSC1=O | 5% |
| O=C(NCc1ccc(F)cc1)C(=O)NCC(c1cccs1)S(=O)(=O)c1cccs1 (stereo not drawn) | 8% |
| Cc1ccc(CNS(=O)(=O)c2ccc3c(c2)C(C)(C)C(=O)N3C)cc1 | -3% |
| CC1CC(C)CN(C(=O)C2CCC(CNc3c(N4CCCCC4)c(=O)c3=O)CC2)C1 (stereo not drawn) | -22% |
| COC(=O)C(C(=O)Nc1ccccc1C)C1CCCC1 (stereo not drawn) | 7% |
| CC1CN(C(C)C)C(=S)NC1=O (stereo not drawn) | -12% |
| CCOC(=O)COc1ccc2ccccc2c1/C=C/[N+](=O)[O-] | 25µM* |
| CCCCN(C(C)=O)C1CC(=O)N(c2ccc(OCCC)cc2)C1=O (stereo not drawn) | -8% |
| Cc1ccc(C)n1-c1cccc(NC(=O)c2ccccc2)c1 | 6% |
| CC(CNC(=O)c1ccc(CSc2nc3ccncc3n2Cc2ccc(F)cc2)cc1)c1ccccc1 (stereo not drawn) | 5% |
| O=C(COC(=O)/C=C/c1c(F)cccc1Cl)NCC1CCCO1 (stereo not drawn) | -7% |
| Cc1ccc(Cn2c(C(=O)O)c(CNC3CCCC3)c3ccc(C)cc32)cc1 | -2% |
| CC(C)(C)OC(=O)[C@H](Cc1ccccc1)NC(=O)c1[nH]cnc1C(=O)N[C@@H](Cc1ccccc1)C(=O)OCc1ccccc1 | -15% |
| C=CS(=O)(=O)c1c2cc(OC)ccc2nc2ccc(OC)cc12 | 50µM* |
| CCOc1ccc(N(C)S(=O)(=O)c2cc(-c3cc(C)no3)ccc2CC)cc1 | 1% |
| CCN1CCN(c2ccc(S(=O)(=O)N3CCOCC3)cc2NC(=O)c2ccccc2OC(F)F)CC1 | 12% |
| Cn1nccc1C(=O)N1CCCC(C(=O)c2ccc(C(F)(F)F)cc2)C1 (stereo not drawn) | -13% |
| Cn1c(=O)c2c(nc(SCCCC#N)n2Cc2ccccc2F)n(C)c1=O | -26% |
| COC(=O)C(C)C1Sc2ccccc2NC1=O (stereo not drawn) | 12% |
| CN1CCc2c(sc(NC(=O)c3cc(Cl)sc3Cl)c2C(N)=O)C1 | 0% |
| CCN(CC)c1ccc(S(=O)(=O)N2CCOCC2)cc1NC(=O)COC(=O)c1cccnc1SC | 1% |
| CNC(=O)CS(=O)(=O)CC(=O)Nc1cc(OC(C)C)c(Cl)cc1Cl | 6% |
| CC(C)(C)OC(=O)N1CCC(c2c(C(=O)N3CCN(C4CCCCC4)CC3)cnn2-c2ccc(F)cc2)CC1 | -5% |
| COc1ccc(NC(=O)CC2C(=O)N(c3cccc(OC)c3)C(=O)N2Cc2ccc3c(c2)OCO3)cc1 (stereo not drawn) | -12% |
| COc1ccccc1OC(C)c1nnc(SCC(=O)Nc2c(C)n(C)n(-c3ccccc3)c2=O)n1-c1ccccc1 (stereo not drawn) | -8% |
| Cc1ccc(-c2c(C(=O)O)c(C(=O)O)c3n2CCC3)cc1 | -12% |
| CCN(CC)S(=O)(=O)c1cccc(NC(=O)CSc2nc3ccccc3[nH]2)c1 | -9% |
| COc1cc2c(cc1OC)CN(C(=O)Cc1ccc(OC)c(S(=O)(=O)N3CCOCC3)c1)CC2 | -4% |
| CC(C)(C)c1ccc(NC(=O)Cn2cnc3cc([N+](=O)[O-])ccc3c2=O)cc1 | 3% |
| COc1ccc(NC(=O)N/C=C/c2ccco2)cc1 | 9% |
| CCc1nc(N2CCN(C(=O)c3ccccc3)CC2)c(C#N)c2c1COC(C)(C)C2 | 2% |
| Cc1cc(C)cc(OCCNC(=O)C2CCN(S(=O)(=O)c3ccccc3)CC2)c1 | -4% |
| O=C(Cc1ccc(Cl)cc1)Nc1ccccc1C(=O)N1CCCCC1 | -18% |
| COc1ccc(-n2ncc3c(N(C)C4CCCCC4)ncnc32)cc1 | -7% |
| CCOC(=O)N1CCN(C(=S)NC2CCCC2)CC1 | 11% |
| CS(=O)(=O)N(CC(=O)N1CCOCC1)Cc1ccc(Cl)cc1 | 4% |
| O=C(NNCc1ccccc1)c1ccccn1 | 1% |
| CN1CCN(S(=O)(=O)c2cc(Cl)c(Cl)cc2Cl)CC1 | 2% |
| CCCn1cc(S(=O)(=O)c2ccccc2)c(=O)c2cc(F)c(N3CCCCCC3)cc21 | -4% |
| COc1ccc(NC(=O)CN(C)C(=O)c2cccc(NS(=O)(=O)c3ccc(Br)cc3)c2)cc1 | -5% |
| c1ccc2c(c1)Cn1nc(Cc3nc4c(s3)CCCC4)nc1-2 | 11% |
| Cc1cc(C)cc(OCC(O)CN2CCN(C(=O)c3ccco3)CC2)c1 (stereo not drawn) | 26% |
| Cc1ccc2nc3n(c2c1)CCCN3 | -4% |
| Cc1ccc(N(CC(=O)N=Nc2c(O)[nH]c3ccccc23)S(C)(=O)=O)c(C)c1 | 1% |
| O=C(CC(c1ccccc1)c1ccccc1)Nc1ccc(Cl)cn1 | 5% |
| CCc1nn(CC(=O)NC(C)C)c(=O)c2cc3cc(F)ccc3n12 | -3% |

As a short view, 14 of the compounds above:
| compound | VDR inhibitor |
| --- | --- |
| O=C(Cc1ccc(Cl)cc1)Nc1ccccc1C(=O)N1CCCCC1 | -18% |
| COc1ccc(-n2ncc3c(N(C)C4CCCCC4)ncnc32)cc1 | -7% |
| CCOC(=O)N1CCN(C(=S)NC2CCCC2)CC1 | 11% |
| CS(=O)(=O)N(CC(=O)N1CCOCC1)Cc1ccc(Cl)cc1 | 4% |
| O=C(NNCc1ccccc1)c1ccccn1 | 1% |
| CN1CCN(S(=O)(=O)c2cc(Cl)c(Cl)cc2Cl)CC1 | 2% |
| CCCn1cc(S(=O)(=O)c2ccccc2)c(=O)c2cc(F)c(N3CCCCCC3)cc21 | -4% |
| COc1ccc(NC(=O)CN(C)C(=O)c2cccc(NS(=O)(=O)c3ccc(Br)cc3)c2)cc1 | -5% |
| c1ccc2c(c1)Cn1nc(Cc3nc4c(s3)CCCC4)nc1-2 | 11% |
| Cc1cc(C)cc(OCC(O)CN2CCN(C(=O)c3ccco3)CC2)c1 (stereo not drawn) | 26% |
| Cc1ccc2nc3n(c2c1)CCCN3 | -4% |
| Cc1ccc(N(CC(=O)N=Nc2c(O)[nH]c3ccccc23)S(C)(=O)=O)c(C)c1 | 1% |
| O=C(CC(c1ccccc1)c1ccccc1)Nc1ccc(Cl)cn1 | 5% |
| CCc1nn(CC(=O)NC(C)C)c(=O)c2cc3cc(F)ccc3n12 | -3% |

(cont.)
| compound | VDR inhibitor |
| --- | --- |
| COc1ccccc1CNC(=O)Cn1c(=O)ccc2cc(S(=O)(=O)N3CCC(C)CC3)ccc21 | 6% |
| Cc1ccc(S(=O)(=O)N(C(=O)c2ccncc2)c2ccc(OC(=O)c3ccncc3)cc2)c(C)c1 | -29% |
| c1ccc2[nH]c3cc4ncnc4cc3nc2c1 | -13% |
| Cc1ccc(-c2nnn(CC(=O)N(Cc3ccccc3F)C(C(=O)NC3CCCC3)c3ccncc3)n2)o1 (stereo not drawn) | 4% |
| Cn1c(=O)c(N=O)c(N)n(Cc2ccccc2)c1=S | -7% |
| O=C(c1ccc(-c2ccccc2)cc1)C1CCCN(C(=O)c2ccncc2)C1 (stereo not drawn) | 27% |
| CCc1cc(C(=O)N2CCCC(C(=O)c3cccc(OC(C)C)c3)C2)n(C)n1 (stereo not drawn) | -7% |
| O=S(=O)(c1cccs1)n1cnc2ccccc21 | 19% |
| CCC1CN2CCc3cc(OC)c(OC)cc3C2CC1CC1c2cc(OC)c(OC)cc2CCN1C(=O)C(Cc1c[nH]c2ccccc12)NC(=O)OC(C)(C)C (stereo not drawn) | -8% |
| COc1ccccc1CNc1nc(-c2ccco2)nn1S(=O)(=O)c1ccc(Cl)cc1 | 9% |
| Cc1ccc(NC(=O)NC(=O)CSc2nnnn2C)c(C)c1 | -6% |
| Cc1nn(-c2ccc(N3CCCC3)nn2)c(C)c1CCC(=O)N1CCN(c2ccccc2F)CC1 | 4% |
| Cc1cccc(CNC(=O)c2ccccc2NC(=O)C2=CSCCO2)c1 | 0% |
| CC(C)c1nnc(NC(=O)CCC(=O)NC2CCCCC2)s1 | 10% |
| COc1cccc(C2=CC(c3ccccc3)n3nnnc3N2)c1 (stereo not drawn) | -5% |
| O=C(NCc1ccccc1)C1=C[C@@H](C2CC2)C[C@@H](OCCCCO)O1 | -5% |
| COC(=O)CC1C(=O)NCCN1C(=O)CSc1nc2ccccc2c(=O)n1CC(C)C (stereo not drawn) | 0% |
| O=C(NCCc1ccccn1)C(F)(F)C(F)(F)C(F)(F)C(F)(F)C(F)(F)C(F)F | ? |
| CC(C)OP(=O)(c1ccc(N(C)C)cc1)C(O)c1c(Cl)cccc1Cl (stereo not drawn) | 11% |
| Cc1ccc(/C=C/c2onc(C)c2S(=O)(=O)N2CCC(C(=O)NCc3ccco3)CC2)cc1 | -1% |
| Cc1ccsc1/C=N/N=C/c1sccc1C | 9% |
| CN1CCN(NC(=O)/C=C/c2ccc(C(C)(C)C)cc2)CC1 | 2% |
| CC1CCCCN1CC(=O)NC(=O)NCc1ccccc1 (stereo not drawn) | 1% |
| COc1ccc(CCNC(=O)CN2C(=O)NC(C)(c3ccc([N+](=O)[O-])cc3)C2=O)cc1 (stereo not drawn) | -1% |
| O=C(O)c1cc(Cl)c2c(c1)OCO2 | -9% |
| CC(=O)c1c(C)nn(CC(O)Cn2c3c(c4cc(C)ccc42)CCCC3=O)c1C (stereo not drawn) | -19% |
| Nc1ccccc1C(=O)NCCN1CCNC1=O | 8% |
| Cc1ccc(F)cc1NC(=O)c1ccc(Cn2nc(N3CCN(c4ccccc4)CC3)ccc2=O)o1 | 5% |
| O=C(CN(c1ccccc1)S(=O)(=O)c1ccccc1)Nc1ccccc1C(=O)NCc1ccco1 | -8% |
| Cc1ccc(OCC(O)CN2CCN(CC(O)COc3ccc(C)cc3)CC2)cc1 (stereo not drawn) | 1% |
| Cc1ccc(NC2=C(Cl)C(=O)OC2OC(=O)c2ccccc2)c(C)c1 (stereo not drawn) | -12% |
| Cc1ccc(C(=O)OCC(=O)N(CC(C)C)c2c(N)n(Cc3ccccc3)c(=O)[nH]c2=O)o1 | ? |

Other compounds:
Molecule | VDR inhibitor
CC1CN(C(=S)SCC(=O)c2ccccc2)CC(C)O1 (stereo not drawn) | -9%
CC1=CC(C)(C)Nc2ccc(OC(=O)C(Cc3ccccc3)N3C(=O)C4CCCCC4C3=O)cc21 (stereo not drawn) | -2%
NS(=O)(=O)c1ccc(CCNC(=O)c2ccc(Cl)cc2[N+](=O)[O-])cc1 | 10%
Cc1cc(C)c2c(N=NN3CCCCC3)[nH]nc2n1 | 11%
Cc1ccc(C(=O)C(C)N2C(=O)NC(C)(c3ccccc3)C2=O)cc1 (stereo not drawn) | 4%
Nc1nc(NCCOCCO)nc(NCC2CCCO2)c1[N+](=O)[O-] (stereo not drawn) | -17%
CCc1ccccc1N(C)C(=O)Cn1cnc2sc(C)c(S(=O)(=O)N3CCC(C)CC3)c2c1=O | 0%
N#Cc1cc(C(=O)c2ccccc2O)cn(-c2ccc(Cl)cc2)c1=O | 13%
CCCc1nc2c(=O)n(C)c(=O)[nH]c2n1C | -6%
O=C(CCn1c(=O)[nH]c2ccccc2c1=O)Nc1ccccc1 | -2%
O=C(C[C@H]1C/C=C\CCCCC(=O)OC[C@H]2CCCN2C1=O)N[C@H](CO)Cc1ccccc1 | -25%
COc1ccccc1NC(=O)N1CCN(c2cccc(C(F)(F)F)c2)CC1 | -1%
Cc1nc(SCC(=O)N2CCCc3ccccc32)c2oc3ccccc3c2n1 | -2%
COc1ccc(CCNC(=O)C(=O)NCc2ccc(C(C)C)cc2)cc1OC | 7%
O=C(NCCN1CCOCC1)/C(=C\c1ccccc1Cl)NC(=O)c1ccccc1 | 5%
COc1ccc(CNc2ncnc3c2[nH]c2ccccc23)cc1 | -16%
O=C(Nc1cc(Cl)cc(Cl)c1)c1ccc(Cn2c(=O)[nH]c3ccsc3c2=O)cc1 | 2%
Cc1onc(-c2c(F)cccc2Cl)c1C(=O)Nc1ccccc1N1CCOCC1 | -19%
CC1CCCN(C(=O)COC(=O)c2cc([N+](=O)[O-])ccc2N2CCOCC2)C1 (stereo not drawn) | 6%
Cc1ccc(CNC(=O)c2sc3nc(-c4ccc(F)cc4)ccc3c2N)cc1 | -11%
CCOc1ccc(N2C(=O)N(Cc3ccc(C)cc3C)c3ccccc3S2(=O)=O)cc1 | 12%
Cc1ccc(/C=C/C(=O)O)cc1S(=O)(=O)N1CCC(Cc2ccccc2)CC1 | 12%
CCOC(=O)c1c(C)[nH]c(C(=O)COC(=O)COc2ccccc2C)c1C | -1%
Cn1cnc(S(=O)(=O)N2CCCC(C(=O)NCc3ccc(Cl)cc3)C2)c1 (stereo not drawn) | -3%
CC(c1ccccc1)c1nnc(N)s1 (stereo not drawn) | -21%
Cc1cc(=O)[nH]c(SCC(=O)N2CCN(c3ccccc3)CC2)n1 | -10%
COC(=O)CCC(=O)OC1(C)C(=O)C=C2C=C(C3CC3)N(c3ccccc3)C=C2C1=O (stereo not drawn) | -15%
Cc1cc(C)cc(NC(=O)CCOc2ccccc2)c1 | -8%
Cc1ccc(C(=O)N/C(=C/c2ccc(Cl)cc2)C(=O)NCC2CCCO2)cc1 (stereo not drawn) | -11%
CCCC(=O)OC1=CN(Cc2ccccc2)S(=O)(=O)c2ccccc21 | 12%
CC(=O)N(CCN(C(C)=O)c1ccccc1)c1ccccc1 | -2%
Clc1ccccc1-c1nnc2sc(-c3ccc(Br)o3)nn12 | -17%
COc1ccc(/C=C/C(=O)Oc2cc(C)[nH]c(=O)c2[N+](=O)[O-])cc1OC | 19%
O=C(NCCc1ccccc1)c1ccc2c(c1)OCCO2 | -28%
Cc1cc(NC(=O)c2cccs2)cc(-c2nc3ncccc3o2)c1O | -14%
c1csc(-c2nc(-c3ccc(-c4ccon4)s3)no2)c1 | 2%

Assay outcomes as filed in PubChem.
